# miR-21 reporter: qHTS Assay for Modulators of miRNAs and/orActivators of miR-21; HeLa miR-21 FLuc reporter, luciferase, 48 h; 340,000 tested, under 10 active; AID 2288, 2010; Potency, µM (titrated, usually from 38.3 µM), without a hit: at the top dose reporter change, positive = more light; active = well fitted rising curve with a large enough effect; inconclusive = small, poorly fitted or top-dose-only effect; inactive = no such curve, though single readings can be large or run the other way;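 also: % of control where 0% means no effect; miR-21 action dims this reporter so a rising signal means less miR-21 action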
#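 Using DMEM plus 10% FBS, HeLa miR-21-FLuc cells are incubated with test compounds (final up to about 40uM) for 48 hours; firefly luciferase signal is then imaged following reagent-mediated lysis.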
# Rango dissoc inh: qHTS Assay for Inhibitors of RanGTP induced Rango (Ran-regulated importin-beta cargo) - Importin beta complex dissociation; Biochemical FRET Rango-importin beta, RanGTP-induced dissociation; Snurportin-1 (Homo sapiens) + GTP-binding nuclear protein Ran (Homo sapiens) + Importin …; Potency, µM (highest dose often 46.1 µM), for the others: at the top dose activity change, negative = inhibition; 340,000 tested, 0.071% active; active means falling FRET ratio curve, often poorly fitted, with flat reads before Ran was added; inconclusive means other falling curves, or compound fluorescence or quenching; inactive means flat or rising ratio curve;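 also: potency is read from the fitted curve at half-maximal effect; % of control where 0% means no effect; nearly all actives have a fitted effect of over 45% in size; -100% = wells without RanGTP and RCC1; the record marks most hits as doubtful in a second field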
#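 FRET read at 45 min, room temperature: inhibitors block the CFP/YFP signal rise when RanGTP (0.6 uM Ran, 2 mM GTP, 0.2 uM RCC1) frees Rango (0.1 uM) from importin beta (0.25 uM). Pre-read after 5 min compound exposure flags interference.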
# Rango complex inh: qHTS Assay for Inhibitors of Rango (Ran-regulated importin-beta cargo) - Importin beta complex formation; 340,000 tested, 0.031% active; Potency, µM (doses to about 92.2 µM), inactives show at the top dose inhibition of complex formation; Rango CFP/YFP FRET sensor + importin beta, 45 min; active = rising FRET ratio curve, often small or poorly fitted; inconclusive = mostly compound fluorescence or quenching in the first reads; inactive = flat curves in all reads;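 also: potency is read from the fitted curve at half-maximal effect; 0% = DMSO wells and 100% = buffer wells lacking importin beta; nearly all actives have a fitted effect of over 15% in size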
# Target sequence (Q14974 whole entry, looked up): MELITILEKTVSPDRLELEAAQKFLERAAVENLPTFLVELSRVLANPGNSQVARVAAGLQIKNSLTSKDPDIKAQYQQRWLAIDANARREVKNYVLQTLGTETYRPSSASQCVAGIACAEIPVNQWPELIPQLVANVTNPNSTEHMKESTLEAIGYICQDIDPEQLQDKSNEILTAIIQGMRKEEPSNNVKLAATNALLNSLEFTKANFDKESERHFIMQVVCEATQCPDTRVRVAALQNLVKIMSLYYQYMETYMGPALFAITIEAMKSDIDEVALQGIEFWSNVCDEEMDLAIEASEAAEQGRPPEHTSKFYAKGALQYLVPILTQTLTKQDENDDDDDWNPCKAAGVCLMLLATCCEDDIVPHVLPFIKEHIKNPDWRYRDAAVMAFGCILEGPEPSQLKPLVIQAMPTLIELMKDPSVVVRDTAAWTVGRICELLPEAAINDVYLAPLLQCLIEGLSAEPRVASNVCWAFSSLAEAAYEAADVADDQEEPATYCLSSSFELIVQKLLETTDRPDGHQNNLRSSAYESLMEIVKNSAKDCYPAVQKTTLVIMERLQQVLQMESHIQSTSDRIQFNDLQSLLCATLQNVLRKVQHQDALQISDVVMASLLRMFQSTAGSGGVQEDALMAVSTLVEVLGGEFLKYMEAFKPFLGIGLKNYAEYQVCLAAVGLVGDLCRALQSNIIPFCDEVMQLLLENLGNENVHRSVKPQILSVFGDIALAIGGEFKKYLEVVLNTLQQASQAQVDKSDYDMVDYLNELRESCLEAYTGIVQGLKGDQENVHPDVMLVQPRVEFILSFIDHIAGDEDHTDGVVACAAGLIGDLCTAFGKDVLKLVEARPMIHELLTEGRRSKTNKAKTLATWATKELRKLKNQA
#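 FRET biosensor Rango (snurportin 1 IBB between N-terminal EYFP and C-terminal Cerulean), 50 nM in PBS/1 mM DTT/0.02% Tween-20/0.1% BSA, preincubated 5 min RT with compound; 0.125 microM importin beta added, 45 min RT, CFP/YFP FRET ratio read.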
# GLA inh pH 4.5: qHTS Assay for Inhibitors of Human alpha-Galactosidase at pH 4.5; 230,000 tested, under 10 active; activity change, negative = inhibition, % at 105 µM; AID 1467, 2008; purified enzyme, 4-MU-alpha-Gal fluorescence, pH 4.5; Alpha-galactosidase A (Homo sapiens), P06280; inconclusive = small, poorly fitted or top-dose-only inhibition, or a rising curve; inactive = flat fitted curve, though single readings scatter; no compound was filed as active;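 also: 0% = full activity with enzyme and -100% = basal without enzyme; dose as in the result columns while the protocol names 77 µM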
# Numbers without * were called inactive; ? = inconclusive; / = no result given; & = joins results of further samples. A portion of the library; rates above refer to the full screens.
structure | Rango complex inh | Rango dissoc inh | GLA inh pH 4.5 | miR-21 reporter
COc1cccc(-c2ncc3ccccc3c2COC(=O)c2ccc(F)cc2)c1 | ? | 31% | / | /
COc1ccc(C(=O)OCC(=O)NC(=O)NC(C)C)cc1OC | -0.1% | -11% | -2 | -3%
CSc1ccc(/C=C2\CCn3c2nc2cc(C(=O)O)ccc2c3=O)cc1 | ? | -28% | / | -13%
O=C(CN1CCCc2ccccc21)NCCc1ccc(Cl)cc1 | 0.0% | -8% | 3 | -9%
Cc1ccc(Cl)cc1N1CCN(C(=O)c2ccc(NS(=O)(=O)c3c(C)noc3C)cc2)CC1 | 0.1% | 19% | 3 | -5%
O=C1CCCN2N=C(SCC(=O)Nc3ccc(OC(F)(F)F)cc3)SC2=N1 | 0.5% | -9% | / | 2%
COC(=O)N/N=C/c1c(C)nn(-c2cccc(Cl)c2)c1Cl | -2.1% | 9% | 5 | -17%
CSCc1ccc(C(=O)NC(C)c2ccc(-n3ccnc3)cc2)cc1 (centres undefined) | 0.1% | 8% | / | -25%
O=C1NC(Cc2c[nH]c3ccccc23)C(=O)N1Cc1ccccc1 (centres undefined) | -1.0% | 21% | / | -1%
COCCN1C(=O)Cc2c1nc(N)c1c(N)nc(N3CCN(c4ccc(F)cc4)CC3)c(C#N)c21 | -11% | -18% | 7 | 0%
Cc1cc(N2C(=O)C(O)=C(C(=O)c3ccco3)C2c2ccc(O)cc2)no1 (centres undefined) | ? | -17% | -14 | -1%
CCc1ccc2[nH]c(=O)c(CN(CCCN3CCOCC3)C(=O)Nc3cccc(Cl)c3)cc2c1 | -1.9% | 16% | -10 | 19%
O=C(Nc1ccc2nc(-c3ccccc3)oc2c1)c1ccco1 | -0.6% | -4% | 10 | -35%
O=C(COC(=O)c1cc(S(=O)(=O)N2CCOCC2)ccc1Cl)NC1CC1 | 4.1% | 0% | / | /
Cc1ccc2cc(CN(C)C(=O)C3CCCO3)c(=O)[nH]c2c1 (centres undefined) | 0.2% | -5% | 1 | -24%
COc1ccc(C)cc1S(=O)(=O)n1ccnc1C | -0.6% | 10% | 6 | 4%
O=C(c1ccc(CNS(=O)(=O)c2ccccc2)cc1)N1CCN(c2ccccn2)CC1 | 0.7% | 3% | -16 | -7%
Cn1c(C23CC4CC(CC(C4)C2)C3)n[nH]c1=S | -1.3% | -15% | 1 | -10%
Cc1ccc(NN=Nc2nc3c([nH]2)c(=O)n(C)c(=O)n3C)cc1 | 0.6% | 1% | 10 | -13%
CC(C)(C)C(=O)CSc1ccc(S(=O)(=O)N2CCN(Cc3ccccc3)CC2)cn1 | 2.1% | 14% | / | /
CCN(C(=O)COC(=O)C1COc2ccccc2O1)c1c(N)n(Cc2ccccc2)c(=O)[nH]c1=O (centres undefined) | -0.4% | -3% | / | /
O=C(NNC(=S)NCc1ccccc1)c1ccc(Br)cc1 | -1.8% | 23% | / | -3%
Cc1ccccc1S(=O)(=O)Cc1ccc(C(=O)NC2CCCCCC2)o1 | 0.4% | -9% | / | 11%
CCOC(=O)c1c(CN2CCNCC2)nc2ccc(Cl)cc2c1-c1ccccc1 | 5.5% | -6% | / | /
O=C(COc1ccc(S(=O)(=O)N2CCCC2)cc1Cl)NC1CC1 | -1.8% | 2% | 3 | 0%
COCCCn1c(SCC(=O)N2CC(=O)Nc3ccccc32)nnc1-c1ccoc1C | ? | -19% | 3 | -3%
O=C(CNC(=S)N(Cc1ccccc1Cl)C1CCCC1)NCCN1CCOCC1 | -3.0% | 7% | -10 | 0%
COc1cc(NC(=O)c2ccccc2)c(OC)cc1NC(=O)CN1CCOCC1 | 0.4% | -9% | 4 | -11%
C#CCOCCOCCOCCNc1nc(N2CCN(C(=O)CCCCCCCCCCNC(=O)[C@@H](CCSC)n3cc(CCO)nn3)CC2)nc(N2CCN(C(=O)CCCCCCCCCCNC(=O)[C@H]([C@@H](C)CC)n3cc(CCCCCN)nn3)CC2)n1 | 8.6% | 22% | / | /
CN1CCC2CC1c1cc(-c3ccc(C(F)(F)F)cc3)ccc12 (centres undefined) | 5.0% | 1% | / | /
Cc1cc(=O)n2nc(N3CCC(C(=O)NC4CCCc5ccccc54)CC3)sc2n1 (centres undefined) | -2.4% | -2% | 2 | -8%
O=c1c2c3c(sc2nc2n1CCCC2)CCCCC3 | -4.3% | -13% | 3 | -57%
O=C(Cc1ccc(NC(=O)C2CCN(C(=O)C3CC3)CC2)cc1)Nc1cccc(C(=O)N2CCCC2)c1 | -4.9% | -21% | / | /
C[C@H](NC(=O)c1nc[nH]c1C(=O)N1CCc2ccccc2C1)C(=O)OC(C)(C)C | -4.4% | 1% | -1 | 7%
O=C(Cc1sc(Nc2ccccc2)nc1-c1ccccc1)NCc1ccccc1 | 0.0% | -10% | 3 | -3%
Cc1sc2nc(CSCC(=O)Nc3cc(F)ccc3F)[nH]c(=O)c2c1C | 0.8% | 1% | / | /
CCOc1ccccc1NC(=O)CCCNC(=O)Cn1cnc2sc(C)c(C)c2c1=O | 3.5% | 5% | / | 1%
COc1cc(CNCCc2ccc(S(N)(=O)=O)cc2)ccc1OCC(=O)NC1CCCCC1 | 0.7% | -9% | 1 | -9%
CCc1ccc(-n2c(O)cnc2Nc2nc(C)cc(C)n2)cc1 | -6.0% | 12% | -2 | -12%
COc1ccccc1CNC(=O)CCC(=O)N1CCOc2ccc(Cl)cc21 | -2.7% | -4% | / | 0%

# Entries of single compounds as entered above. Order of screens: Rango complex inh | Rango dissoc inh | GLA inh pH 4.5 | miR-21 reporter
# `O=c1c2c3c(sc2nc2n1CCCC2)CCCCC3` is listed as -4.3% | -13% | 3 | -57%
# `O=C(Cc1sc(Nc2ccccc2)nc1-c1ccccc1)NCc1ccccc1` is listed as 0.0% | -10% | 3 | -3%
# `Cc1cc(=O)n2nc(N3CCC(C(=O)NC4CCCc5ccccc54)CC3)sc2n1` (centres undefined) is listed as -2.4% | -2% | 2 | -8%
# `O=C(Cc1ccc(NC(=O)C2CCN(C(=O)C3CC3)CC2)cc1)Nc1cccc(C(=O)N2CCCC2)c1` is listed as -4.9% | -21% | / | /

# Remaining list, next part.
structure | Rango complex inh | Rango dissoc inh | GLA inh pH 4.5 | miR-21 reporter
Cc1cc2cc3c(cc2nc1SCC(=O)Nc1c(C)cccc1C)CCC3 | 0.5% | -6% | 8 | 0%
CS(=O)(=O)N(CC(=O)Nc1ccccc1)Cc1ccc(Cl)cc1 | -3.6% | 5% | 0 | 0%
CCOC(=O)N1CCN(C(=O)Cc2ccsc2)CC1 | 0.7% | -12% | 2 | -3%
Cc1ccc(N2C(=O)c3ccc(C(=O)N4CCN(c5ccc(C)c(C)c5)CC4)cc3C2=O)cc1 | 2.5% | 1% | -4 | -2%
CC(C)Oc1ccc(CNS(=O)(=O)c2csc(C(N)=O)c2)cc1 | 3.5% | 25% | / | 13%&11%
Cc1ccc(-n2nc(C(=O)O)c3ccccc3c2=O)cc1C | 4.8% | -1% | 11 | 14%
O=C(c1ccccc1)C(CN1CCCCC1)c1ccccc1 (centres undefined) | 4.0% | -9% | / | /
Cc1nc(CC(=O)c2ccc(O)c(C)c2O)cs1 | -2.4% | -2% | 0 | -16%
CC(C)(C)CC(C)(C)N=C1Nc2cc(Cl)c(Cl)cc2NC12C[C@H]1CCC(=O)N3CC[C@@H](C2)[C@@H]13 (some centres undefined) | 9.6% | -4% | / | /
Cc1cc(-n2cnc(-c3cn[nH]c3C)n2)no1 | 0.0% | -14% | -3 | -27%
COc1cccc(C(=O)/C=C/c2ccc(SC)cc2)c1 | ? | ? | -27 | -7%
CC(=O)Oc1ccc2nc(/C=C/c3ccccc3)oc(=O)c2c1 | -5.4% | ? | / | 11%
CC(C)(C)N(Cc1ccccc1)C(=O)COC(=O)/C=C/c1ccc2c(c1)OCO2 | 0.9% | -3% | / | /
CCn1c(C)c(C)c2cc(C(=O)NCCCN3CCCCC3)ccc21 | -1.8% | -13% | / | -7%&-4%
C/C(=N\NC(=O)c1ccccc1)c1ccc(C)c([N+](=O)[O-])c1 | 4.1% | -6% | 5 | -32%
COc1ccc(CC(=O)Nc2cccc(C(C)=O)c2)cc1S(=O)(=O)N1CCOCC1 | ? | ? | / | /
Cc1ccc(C(=O)N2CCC(C(=O)Nc3cccc([N+](=O)[O-])c3)CC2)cc1 | -1.1% | -9% | / | 3%
CCc1ccc(N(C(=O)c2ccco2)C(C(=O)NC2CCCC2)c2ccco2)cc1 (centres undefined) | -0.1% | -4% | / | /
CC(C)c1ccc(C(O)Cc2nc3ccccc3n2C)cc1 (centres undefined) | 1.2% | -15% | 0 | -49%
O=C(CN1C(=O)NC2(CCCCCCC2)C1=O)Nc1c(Cl)cccc1Cl | -0.3% | 1% | / | /
Cc1cccc(N2C(=O)C(O)=C(C(=O)c3cccs3)C2c2ccc(F)cc2)n1 (centres undefined) | -2.6% | -7% | 1 | 6%
Cc1nnc(NC(=O)CSc2nc(N)c(NC(=O)c3cccs3)c(=O)[nH]2)s1 | -0.3% | -3% | -4 | 6%
CC1CC2c3cccc(C(=O)O)c3C(=O)N2c2ccc(Cl)cc21 (centres undefined) | 3.8% | 3% | 4 | 6%
CC(=O)c1cccc(NC(=O)CN(C)S(=O)(=O)c2ccccc2)c1 | 3.1% | -6% | 2 | -20%
CCNc1ccccc1CP(=O)(c1ccccc1)c1ccccc1O (centres undefined) | 6.1% | -8% | / | -3%
CCOc1ccc(C(C)C)cc1S(=O)(=O)n1nc(C)cc1C | 3.7% | 12% | -1 | -3%
CCn1nc(C(=O)Nc2ccc(C)c(C)c2)c(Cl)c1Cl | 0.3% | -7% | 2 | -17%
CC(CCc1ccccc1)NC(=O)CCNC(=O)c1ccccc1Cl (centres undefined) | -1.0% | 29% | / | /
Cc1ccc2sc(C)[n+](CCC(C)S(=O)(=O)[O-])c2c1 (centres undefined) | 7.6% | 1% | 6 | -8%
CCC(C)NC(=O)C1CC(c2ccc(OC)cc2)=NO1 (centres undefined) | -1.0% | -3% | 5 | -17%

# Part of the list above, with values ahead of the structure:
Rango complex inh | Rango dissoc inh | GLA inh pH 4.5 | miR-21 reporter | Compound
1.2% | -15% | 0 | -49% | CC(C)c1ccc(C(O)Cc2nc3ccccc3n2C)cc1 (centres undefined)
0.6% | 1% | 10 | -13% | Cc1ccc(NN=Nc2nc3c([nH]2)c(=O)n(C)c(=O)n3C)cc1
-3.6% | 5% | 0 | 0% | CS(=O)(=O)N(CC(=O)Nc1ccccc1)Cc1ccc(Cl)cc1
? | ? | / | / | COc1ccc(CC(=O)Nc2cccc(C(C)=O)c2)cc1S(=O)(=O)N1CCOCC1

# New compounds follow
structure | Rango complex inh | Rango dissoc inh | GLA inh pH 4.5 | miR-21 reporter
CC1(C)CN(c2ccsc2C(=O)O)C1=O | -0.2% | -5% | -3 | -5%
CN(Cc1ccccc1)CC(O)COc1ccc(CNCCOc2cccnc2)cc1 (centres undefined) | -0.4% | 1% | -3 | 3%
CCN(CC)C(=O)C1CCCN(c2ccc([N+](=O)[O-])cc2/C=N/NC(=O)c2cccc([N+](=O)[O-])c2)C1 (centres undefined) | -0.4% | 6% | 4 | 0%
COCCN(CCOC)CC(O)COC(c1ccccc1)c1ccccc1 (centres undefined) | 2.6% | 4% | 6 | -1%
CCC1(O)CCCC2C3CCC4CC(=O)CCC4(C)C3C(=O)CC21C (centres undefined) | -4.9% | -5% | / | /
O=C1NN(c2ccc(F)cc2)C(=O)/C1=C/c1cccs1 | 3.2% | -6% | 0 | 1%
CCCCCCCOc1ccc(-c2ccc(C#N)cn2)cc1 | -0.2% | -2% | -4 | -1%
O=C1CC(Nc2ccccc2)C(=O)N1c1ccc(N2CCOCC2)cc1 (centres undefined) | 6.3% | 24% | 8 | 2%
CCCCN(C(=O)NC(=O)Nc1nc2ccc(OC)cc2s1)S(C)(=O)=O | 1.0% | -11% | -2 | -44%

# Compound activity: PubChem BioAssay, National Center for Advancing Translational Sciences (NCATS)
